# YopH PTP inh: blocks Yersinia enterocolitica YopH tyrosine phosphatase; fluorescence Ex485/Em525; AID 898; 0.16% of 140,000 active; inhibition, %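 (about 10 µM by stock and volumes)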;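 active = inhibition of 50% or more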;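 also: controls were vehicle for no effect and minimum signal wells for full effect; inactives centre near -20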
# Mtb bLac sens: beta-lactam sensitization of Mtb H37Rv; M. tuberculosis H37Rv growth with meropenem, percent inhibition; hits of this screen are not shown here; inhibition, % at 25 µM; 0.27% of 330,000 active; AID 434955;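 active = about 74% or more and at least 40 points above the plate without the antibiotic, then above 30% in a dose series; inconclusive = first-round hits that could not be retested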;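 also: growth measured after seven days incubation then overnight dye step; 0% = bacteria only wells and 100% = bacteria with antibiotic; twin plates without the antibiotic show which effects depend on it; some results filed as inactive read as strong as hits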
# Arbovirus inh: antivirals against arbovirus infection. arbovirus infection cell-based antiviral screen. 0.37% of 200,000 active. AID 1251. inhibition, % at 10 µM;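 active = inhibition from about 30%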;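 also: bluetongue infection of BSR cells; cell survival read as ATP light after 72 h; 0% = infected wells without compound and 100% = uninfected wells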
# Mtb H37Rv: M. tuberculosis H37Rv growth inhibitors, H37Rv strain (AID 1626). one-dose inhibition, % at 10 µM; IC50 in µM for titrated hits. M. tuberculosis H37Rv growth inhibition; higher % means a stronger effect. 0.95% of 220,000 active;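 active = confirmed in a dose series; inconclusive = inhibition above 80% but not taken into the dose series; inactive = below 80% or under 30% at every dose of the series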;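 also: bacteria incubated seven days before Alamar blue readout; 0% = bacteria only wells and 100% = bacteria with antibiotic wells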
# RecA intein inh: inhibitors of M. tuberculosis RecA intein splicing; cell-free RecA intein splicing, fluorescence; inhibition, %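 (about 9 µM by stock and volumes)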; 0.75% of 290,000 active; in the data active = inhibition above about 30%; inconclusive = no clear call, values can overlap the other calls;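 also: 0% = vehicle wells and 100% = reference inhibitor control wells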
# Target sequence (P9WHJ3 whole entry, looked up): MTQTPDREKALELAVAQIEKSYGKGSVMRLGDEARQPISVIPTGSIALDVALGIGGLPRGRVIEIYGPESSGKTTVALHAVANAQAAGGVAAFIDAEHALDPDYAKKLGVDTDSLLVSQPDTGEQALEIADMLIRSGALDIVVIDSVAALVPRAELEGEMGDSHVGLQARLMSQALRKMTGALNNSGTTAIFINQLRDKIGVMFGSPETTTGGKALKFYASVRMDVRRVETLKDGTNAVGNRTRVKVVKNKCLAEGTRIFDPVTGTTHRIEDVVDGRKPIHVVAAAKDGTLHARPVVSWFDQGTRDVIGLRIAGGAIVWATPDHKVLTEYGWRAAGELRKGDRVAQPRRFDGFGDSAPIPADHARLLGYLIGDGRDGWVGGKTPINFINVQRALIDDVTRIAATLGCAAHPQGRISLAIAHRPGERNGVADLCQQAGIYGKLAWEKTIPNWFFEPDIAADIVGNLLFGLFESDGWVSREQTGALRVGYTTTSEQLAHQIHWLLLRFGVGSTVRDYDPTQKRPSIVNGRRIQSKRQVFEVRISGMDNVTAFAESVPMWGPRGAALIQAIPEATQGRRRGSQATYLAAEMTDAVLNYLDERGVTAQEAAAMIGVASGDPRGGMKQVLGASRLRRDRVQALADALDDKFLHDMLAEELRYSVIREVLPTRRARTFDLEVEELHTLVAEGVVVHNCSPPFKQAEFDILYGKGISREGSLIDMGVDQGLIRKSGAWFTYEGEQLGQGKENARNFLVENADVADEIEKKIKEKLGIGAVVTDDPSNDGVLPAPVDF
# Arbovirus inh repeat: further read-out of Arbovirus inh, marked with its call; inhibition, %; measured here: 10K subset replicate screen; many hits read low in the repeat;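 first of two repeat runs on a subset; 0% = infected and 100% = uninfected wells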
# The depositor's hits bear a star; ? = inconclusive; / = not tested or not shown; & = joins results of further samples. Only part of the results is shown. The share of hits here may be higher or lower than overall.
# Start of the listing, in advance:
SMILES,YopH PTP inh,Mtb bLac sens,Arbovirus inh,Mtb H37Rv,RecA intein inh,others
O=C(COc1coc(CN2CCc3ccccc3C2)cc1=O)Nc1ccc(F)cc1,/,4,/,/,0.4,
CCSc1nc(=S)cc(C)[nH]1,/,7,/,2%,0.1,
O=c1[nH]c2ccccc2n1C1=CCCC1,-14,-6,-5,-10%,0.8,
O=C(NCc1ccccc1)N1CCN(c2ccc(F)cc2)CC1,-19,-8,-3,-7%,-1.3,
O=C(c1cc2ncc(Br)cn2n1)N1CCOCC1,-13,-1,4,-7%,/,

# The list itself, from the start:
SMILES,YopH PTP inh,Mtb bLac sens,Arbovirus inh,Mtb H37Rv,RecA intein inh,others
O=C(COc1coc(CN2CCc3ccccc3C2)cc1=O)Nc1ccc(F)cc1,/,4,/,/,0.4,
CCSc1nc(=S)cc(C)[nH]1,/,7,/,2%,0.1,
O=c1[nH]c2ccccc2n1C1=CCCC1,-14,-6,-5,-10%,0.8,
O=C(NCc1ccccc1)N1CCN(c2ccc(F)cc2)CC1,-19,-8,-3,-7%,-1.3,
O=C(c1cc2ncc(Br)cn2n1)N1CCOCC1,-13,-1,4,-7%,/,
Cc1ccc(S(=O)(=O)CCc2nnc(NC(=O)CCl)s2)cc1C,/,15,7,-7%,26,
O=S(=O)(c1ccccc1)c1nc(NCc2ccccc2)sc1Cl,-36,2,11,-2%,13,
O=C(CNC(=O)c1ccc(Br)cc1)c1ccccc1,/,0,/,/,2.1,
Cc1ccc(-c2nc(CSCC(=O)Nc3cc(C)on3)c(C)o2)cc1,-15,-6,5,0%,2.3,
Cc1cccc(-n2ncc3c(Nc4c(C)n(C)n(-c5ccccc5)c4=O)ncnc32)c1,7,-3,2,-6%,3.7,

# 4 entries drawn at random from those above:
SMILES,YopH PTP inh,Mtb bLac sens,Arbovirus inh,Mtb H37Rv,RecA intein inh,others
O=C(COc1coc(CN2CCc3ccccc3C2)cc1=O)Nc1ccc(F)cc1,/,4,/,/,0.4,
O=C(CNC(=O)c1ccc(Br)cc1)c1ccccc1,/,0,/,/,2.1,
Cc1ccc(S(=O)(=O)CCc2nnc(NC(=O)CCl)s2)cc1C,/,15,7,-7%,26,
O=C(NCc1ccccc1)N1CCN(c2ccc(F)cc2)CC1,-19,-8,-3,-7%,-1.3,

# Other entries follow:
SMILES,YopH PTP inh,Mtb bLac sens,Arbovirus inh,Mtb H37Rv,RecA intein inh,others
c1ccc(CN(Cc2ccccc2)c2ncnc3c2nnn3Cc2ccccc2)cc1,/,-5,/,-2%,2.5,
O=C(COC(=O)c1ccccc1F)Nc1cccnc1Cl,/,-4,4,-1%,-1.3,
C=CCNC(=O)c1onc(CSc2ccc(F)cc2)c1C(=O)O,15,2,0,-9%,-0.9,
COc1ccc(C(=O)C(C)Oc2cccc(NC(=O)c3cccc([N+](=O)[O-])c3)c2)cc1 (configuration not stated),-16,?,4,-3%,5.7,
CCCCn1cnc2c(oc3nc4c(cc32)CCCC4)c1=O,/,-6,/,-4%,-3.1,
Cc1nc2ccccc2c(=O)n1-c1ccc(NS(=O)(=O)c2cc(F)ccc2F)cc1,/,-11,/,/,2.2,
O=S(=O)(NCc1ccccc1)NCc1ccc(Cl)cc1Cl,/,-6,/,/,-5.3,
O=C(NC1CCCC1)c1cc2cc(Br)ccc2o1,/,2,/,/,1.7,
CC1(C)CC(NC(=O)COc2ccc(Br)cc2Cl)CC(C)(C)N1,/,0,/,/,1.1,
Clc1ccc2c(c1)C(c1cccs1)=NNC(c1cccnc1)=N2,-17,-19,-7,-5%,-0.4,
CC(C(=O)O)N1C(=O)CSc2ncccc21 (configuration not stated),-26,-3,8,-6%,-2.0,
CCOc1ccc(-c2nc(-c3cccnc3)no2)cc1OCC,-12,98,17,-3%,0.8,
OC(Cn1cncn1)c1ccc(Cl)cc1Cl (configuration not stated),-35,1,13,2%,-1.5,
Cc1ccc(-c2noc(C3CCCN(S(=O)(=O)c4ccc(S(=O)(=O)N(C)C)cc4)C3)n2)o1 (configuration not stated),-17,16,-1,48%,3.0,
COc1ccc(/C=C2\OC(=O)c3c(OC)cccc32)cc1OC,-40,7,-1,/,-155,
COc1cc(NC(=O)C2CC(=O)NC3=C2C(=O)CC(C)(C)C3)c(OC)cc1Cl (configuration not stated),-15,-8,-6,3%,-1.7,
Cc1nonc1C1CCCN1Cc1nc(-c2ccccc2Cl)oc1C (configuration not stated),/,1,0,13%,1.4,
Cc1nc2ccccc2n1-c1ccccc1,-45,5,-1,1%,-1.9,Arbovirus inh repeat=2
COc1ccc2nc(NC(=O)CSc3ccccc3)sc2c1,2,-3,12,9%,8.6,
Cc1c(C(=O)NNc2cc(=O)n(C)c(=O)n2C)cccc1[N+](=O)[O-],/,-4,1,-7%,-8.3,
O=C(CN1C(=O)CCC1=O)Nc1ccc(S(=O)(=O)N2CCOCC2)cc1,3,3,6,/,2.1,
O=C(Nc1nnc(SCC(=O)N2CCCCC2)s1)C1CCCCC1,-2,5,3,3%,2.3,
O=C(NC1CCCC1)c1ccc([N+](=O)[O-])s1,/,2,-20,-3%,/,
COC(=O)Cc1ccc(NC(=S)Nc2ccc(N3CCOCC3)cc2)cc1,/,98,2,?,-4.4,
COc1ccccc1NS(=O)(=O)c1ccc(C)c(C(N)=O)c1,-4,-3,1,-3%,-3.7,
O=C1CCN(CCc2ccccc2)CCN1[C@H](CO)c1ccccc1,/,7,/,/,-1.3,
CCOCC(=O)N1CCN(c2ccc([N+](=O)[O-])cc2)CC1,-23,2,8,8%,6.9,
Cn1nc(C(F)(F)F)c(C(=O)Nc2ccc(F)cc2F)c1Cl,/,2,-2,6%,-1.0,
O=c1ccc(-c2ccccc2)n[nH]1,-15,4,2,12%,-0.4,
COCCn1nnnc1CN(CCCN1CCOCC1)Cc1cc2c(C)ccc(C)c2[nH]c1=O,11,/,15,1%,-9.7,
CCNC(=S)NN=C1c2ccccc2-c2ccccc21,/,95,4,58%,2.1,
COc1cc(OC)cc(C(=O)NCC2CCCN(C(=O)c3csc(C)n3)C2)c1 (configuration not stated),/,-10,/,/,-2.6,
COc1ccc(S(=O)(=O)N(CC(=O)Nc2cccnc2)c2ccccc2OC)cc1,-14,-9,-12,-7%,2.3,
O=C1C2C3C=CC(CC3)C2C(=O)N1/N=C/c1ccc(O)cc1 (configuration not stated),-18,-6,2,-6%,0.2,
CC(=O)Nc1ccc(S(=O)(=O)N2CCN(C(=O)CCC3CCCC3)CC2)cc1,-22,-7,-6,-2%,4.5,Arbovirus inh repeat=-2
CC1Cc2ccccc2N1C(=O)CCN1C(=O)C2C3C=CC(C3)C2C1=O (configuration not stated),-13,-2,7,4%,2.2,
O=C(Nc1ccc(NC(=O)c2ccc([N+](=O)[O-])o2)cc1Cl)c1ccco1,/,96,/,/,-4.4,
CCCNS(=O)(=O)c1ccc(CCC(=O)NCC2CCCO2)cc1 (configuration not stated),-43,-9,-3,4%,2.5,
O=C(/C=C/c1ccccc1[N+](=O)[O-])NCc1ccc(Cl)cc1,/,-1,-7,-6%,-0.1,
O=C(O)c1ccc(N=Cc2c(O)n(Cc3ccc(F)cc3)c(=O)[nH]c2=O)cc1,/,2,/,10%,0.1,
COc1ccc(CSc2nc(CSC)cc(N3CCOCC3)n2)cc1,-30,6,15,-3%,1.7,
CC(C)n1c(Nc2ccccc2)nc2ccccc21,-25,-2,-4,6%,3.2,
CCOc1ccc(-n2nnc3c(=O)n(C/C=C/c4ccccc4)cnc32)cc1,-46,-6,-9,5%,-6.3,
Cc1ccc(-n2c(C)cc(C(=O)OCC(=O)N(CC(C)C)C3CCS(=O)(=O)C3)c2C)cc1 (configuration not stated),-41,-6,1,-1%,2.7,
COC(=O)COc1ccc(S(=O)(=O)N2CCN(c3ccccc3F)CC2)cc1,-57,10,2,-4%,3.0,
CCOC(=O)c1nnn(-c2nonc2N)c1-c1ccccc1Cl,/,0,15,3%,8.8,
CSc1nc(N(CCO)CCO)c2sc3nc(-c4ccco4)c4c(c3c2n1)CCC4,-24,/,1,-3%,-1.5,Arbovirus inh repeat=20
Cc1cccc(C(=O)N2CCC(c3nc(-c4ccc(S(=O)(=O)N5CCOCC5)cc4)no3)CC2)c1,25,3,10,-10%,-4.0,
CCOc1ccc(Cn2c(SCCCCC#N)nc3c2c(=O)n(C)c(=O)n3C)cc1OCC,-58,1,2,-1%,3.2,
COC(=O)c1ccc(CN2CCN(CCc3ccccc3)C(CCO)C2)cc1 (configuration not stated),/,-4,-14,-2%,2.0,

# (continued)
SMILES,YopH PTP inh,Mtb bLac sens,Arbovirus inh,Mtb H37Rv,RecA intein inh,others
CCOC(=O)c1cnc(-n2nc(C)cc2C)nc1-n1nc(C)cc1C,-32,86,-2,11%,0.6,
Cc1cc(Cl)ccc1NC(=O)C(=O)N/N=C/c1ccc2c(c1)OCO2,/,6,/,/,-2.7,
CN1CC2([N+](=O)[O-])CC=C(Oc3ccccc3)C([N+](=O)[O-])(C1)C2 (configuration not stated),-7,?,15,-5%,0.7,
N#CCCN(C(=O)COC(=O)C1CCN(c2ccc(C(F)(F)F)cn2)CC1)c1ccc(F)cc1,/,-7,/,/,2.6,
O=C(CSc1nnc(CNC(=O)c2ccc(F)cc2)o1)Nc1ccc2c(c1)OCO2,/,-11,/,/,-0.4,
Cc1ccc(OCC(=O)NN2C(=O)c3ccccc3C2=O)cc1,/,-5,-2,1%,1.7,
CCOCCCn1c(SCC(=O)Nc2cccc(OC)c2)nc2ccccc2c1=O,/,3,/,/,1.9,
Cc1ccccc1NC(=O)CSc1nc2c(c(-c3ccco3)c1C#N)CCCC2,-40,-1,-4,-3%,0.2,
COc1ccc(C(CC(=O)O)NC(=O)COc2ccccc2OC)cc1OC (configuration not stated),-43,13,-1,-5%,2.9,
CN(C)c1ccc(/C=N/NC(=O)C(O)c2ccc(Br)cc2)cc1 (configuration not stated),/,-5,-3,-4%,-0.5,

# Overlap with the part before: two entries, then new ones.
SMILES,YopH PTP inh,Mtb bLac sens,Arbovirus inh,Mtb H37Rv,RecA intein inh,others
COc1ccc(C(CC(=O)O)NC(=O)COc2ccccc2OC)cc1OC (configuration not stated),-43,13,-1,-5%,2.9,
CN(C)c1ccc(/C=N/NC(=O)C(O)c2ccc(Br)cc2)cc1 (configuration not stated),/,-5,-3,-4%,-0.5,
COc1ccc(-c2nc(CS(=O)CC(=O)NC3CCCC3)c(C)o2)cc1OC (configuration not stated),/,7,/,/,-0.2,
O=C1C=C(c2ccccc2)OC(=O)C1C(=O)c1ccccc1 (configuration not stated),-58,-5,8,-11%&-5%,0.5,
CC(=O)Nc1ccc(SCc2ncc(-c3ccccc3)o2)cc1,/,8,/,/,-0.7,
COc1ccc2ccccc2c1/C=N/NC(=O)c1ccc(C)nc1,/,1,/,/,-3.6,
COCCn1c(SCC(=O)c2ccc(CNC(C)=O)o2)nc2ccccc2c1=O,-41,-7,3,-10%,1.1,
O=c1cc(NS(=O)(=O)c2ccccc2)nc(SCc2c(Cl)cccc2Cl)[nH]1,9,8,12,0%,1.1,
Cc1ccnc2nc(NC(=O)c3ccco3)nn12,/,4,/,/,1.3,
CCOc1cccc(C2/C(=C(/O)c3ccc4c(c3)CC(C)O4)C(=O)C(=O)N2CCCn2ccnc2)c1 (configuration not stated),/,-2,/,/,-0.3,
O=C(c1ccc(-c2cccc(Cl)c2Cl)o1)N1CCOCC1,/,2,-6,-2%,4.6,
O=S1(=O)C=C(Oc2ccc3ccccc3c2)c2ccccc21,3,-3,13,-2%,8.3,
C[C@H](NC(=O)[C@@H]1Cc2ccccc2CN1)C(=O)NCC1CCCO1 (some centres not stated),/,-4,/,/,8.1,
CC(=O)C(Cc1ccc(Cl)nc1)(Cc1ccc(Cl)nc1)C(C)=O,/,-3,2,9%,/,
O=C(COc1ccc(-c2ccccc2)cc1)N1CCN(C(=O)c2cccs2)CC1,/,0,-11,1%,2.0,
C/C=C(\C)C(=O)NCCN1C2=NC[C@H](Cc3ccccc3)N2C[C@H]1Cc1ccc(O)cc1,/,-8,4,8%,1.3,
Cc1ccc(N2CC(C(=O)Nc3ccc(S(=O)(=O)N4CCCC4)cc3)CC2=O)cc1 (configuration not stated),-23,5,3,-1%,3.0,
CCOc1ccccc1NC(=O)C12CC3CC(C1)CC(c1ccc(C)cc1)(C3)C2,12,98,4,-10%,7.1,
Cc1ccc(NC(=O)NC2CC(=O)N(c3ccc4c(c3)OCCO4)C2)cc1 (configuration not stated),/,3,/,/,-1.0,
COc1cc2c(C(=O)NCc3ccc4c(c3)OCO4)cn(CC(C)C)c(=O)c2cc1OC,-39,-3,5,-11%,3.5,
O=C(Nc1ccc(Cl)cn1)C1CC1,/,5,4,0%,5.3,
CCOc1cccc(-c2c(C(=O)N/N=C/c3sccc3C)nnn2-c2nonc2N)c1,/,4,/,/,-0.4,
CCOC(=O)N1CCN(Cc2nc(N)nc(Nc3ccc(Oc4ccccc4)cc3)n2)CC1,-18,86,-15,15%,/,

# Bioassay records: PubChem BioAssay, several laboratories
